Rce1 inhib – yeast Rce1p protease inhibitors, primary screen, biochemical, fluorescence, cell-free homogeneous. CAAX prenyl protease 2 (Saccharomyces cerevisiae (strain ATCC 204508 / S288c)), Q03530. yeast membranes, quenched prenylated peptide cleavage fluorescence. calls only. 290,000 tested, 0.27% active;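 active means fall in fluorescence gain of 50% or more versus controls, with final raw signal at or below 3038400; inconclusive means same 50% fall but final raw signal above 3038400; inactive means fall in fluorescence gain under 50%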;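 further: plate controls were neutral control wells for no effect and wells lacking membranes for full effect; tested at 10 µM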
Target sequence (Q03530 whole entry, looked up): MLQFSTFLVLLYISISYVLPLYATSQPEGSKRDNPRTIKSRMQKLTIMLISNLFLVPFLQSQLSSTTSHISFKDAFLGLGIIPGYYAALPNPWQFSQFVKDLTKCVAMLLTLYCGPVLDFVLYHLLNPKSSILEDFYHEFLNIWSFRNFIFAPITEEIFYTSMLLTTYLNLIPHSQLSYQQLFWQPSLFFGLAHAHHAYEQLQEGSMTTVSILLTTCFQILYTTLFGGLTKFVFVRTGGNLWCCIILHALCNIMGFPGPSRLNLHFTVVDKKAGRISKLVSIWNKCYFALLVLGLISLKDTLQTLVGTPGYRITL
UUG fidelity – modulators of yeast start codon fidelity, primary screen, whole organism, S. cerevisiae, single point, plate reader; S. cerevisiae UUG-firefly luciferase reporter, luminescence/redox ratio; activity score, % at 18.7 µM; 350,000 tested, 0.13% active; AID 602363, 2012;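 active means replicate mean at a twofold rise or more, about +100% in these data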;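 further: firefly luciferase made from a UUG start codon reports start codon fidelity; reporter light over untreated wells divided by growth signal over untreated wells; some hits fall short of that in this replicate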
eIF4H inh – human eIF4H binding inhibitors, primary screen, translation initiation inhibitor project, biochemical, uHTS, fluorescence polarization; Eukaryotic translation initiation factor 4H (Homo sapiens), Q15056; eIF4H fluorescence polarization binding assay; inhibition, % at 35 µM; 290,000 tested, 0.94% active; AID 2012, 2009;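 active means 50% or more with normal probe brightness, or confirmed in later tests; inconclusive means above 50% with abnormal brightness, or retests that disagree; inactive means below 50% or failed in later tests; about a fifth of its hits are not listed in these tables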;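 further: calls also rest on retests at 20 µM and on dose response follow-up; 0% = protein and probe with vehicle and 100% = probe without protein; strong numbers were not always called active; many hits fall short of the cut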
HIV Env fusion – inhibitors of HIV-1 Env-driven cell-cell fusion, primary screen, HeLa-JRFL effector, CEM21 target cells, luciferase; inhibition, % at 12.3 µM; 360,000 tested, 1.1% active; AID 651610, 2012;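 active means mean replicate inhibition score of at least 50 and every replicate individually at or above 50; inconclusive means only one of the two criteria met; inactive means mean below 50 and not all replicates reaching 50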;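 further: 0% = plate neutral controls and 100% = maraviroc near 300 nM; one replicate is shown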
MT1-MMP act inh – blockers of MT1-MMP proenzyme processing, primary screen, HT1080 RFP-PRO-GFP cells, GFP/RFP fluorescence; Matrix metalloproteinase-14 (Homo sapiens), P50281; GFP/RFP ratio fluorescence, overnight; percent of plate control window, DMSO zero; GFP/RFP ratio change, % at 20 µM; 360,000 tested, 0.061% active; AID 651647, 2012;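 active means GFP/RFP ratio change of at least 30% with cell ATP level not reduced by more than half and red fluorescence within 50% of control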; further: strong numbers were not always called active
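Material: RFP-PRO-GFP reporter HT1080 cells. Dosing: single-point 20 µM compound, 1% DMSO. Controls: DMSO and RFP-L50D-GFP cell wells. Timing: cells overnight before dosing, compound overnight, 37 °C, 5% CO2. Measure: GFP/RFP fluorescence ratio.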
CSC inhib – cancer stem cell viability inhibitors, primary screen, luminescence. 300,000 tested, 1.1% active. cancer stem cell-like cells viability. inhibition, % at 7.5 µM;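 active means mean at 75% or more and at least half the replicates too; inconclusive means mean and replicates disagree; tested in HMLE shEcad cells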;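 further: 0% = median of negative and 100% = median of positive control wells; the first replicate is given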
PABP FP inh – PABP poly(A) RNA binding inhibitors, primary screen, biochemical, fluorescence polarization, uHTS; Polyadenylate-binding protein 1 (Homo sapiens), P11940; inhibition, % at 35 µM; 290,000 tested, 1% active;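 active means 50% or more with normal probe brightness, or confirmed in later tests; inconclusive means above 50% with abnormal brightness, or retests that disagree; inactive means below 50% or failed in later tests; about a fifth of its hits are not listed in these tables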;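 further: calls also rest on retests at 20 µM and on dose response follow-up; controls were probe without protein and protein plus probe with vehicle; some compounds called inactive have numbers as strong as hits; many hits fall short of the cut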
eIF4H inh retest – further read-out of eIF4H inh, marked with its call; inhibition, %; compound at 20 µM; confirmation average;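 mean of two retest wells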
PABP FP inh retest – second read-out of PABP FP inh, no call of its own (marks repeat the call); inhibition, %; compound at 20 µM; confirmation repeats;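 mean of two retest wells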
MT1-MMP act inh RFP – also measured in MT1-MMP act inh; calls as there; RFP signal change, %; measured here: RFP expression control read;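 0 = vehicle wells; hits needed this value within 50% of zero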
Numbers without * were called inactive; i = inactive; ? = inconclusive; nt = not tested or not shown. Not all compounds are listed; the hit share may differ from the screen's.

The first 13 records (preview)
SMILES	Rce1 inhib	UUG fidelity	eIF4H inh	HIV Env fusion	MT1-MMP act inh	MT1-MMP act inh RFP	CSC inhib	PABP FP inh	others
COc1cc2nc(N(CCCN(C)C)C(=O)c3ccc(C(=O)c4ccccc4)cc3)sc2cc1OC	i	-10	nt	nt	3	1	-16	nt
C=CCN1C(=O)/C(=C/c2ccc(OC)cc2)S/C1=N/c1nccs1	i	nt	-1	-4	-1	0	-3	3
Oc1ccccc1OCc1nc2ccccc2s1	i	-11	1	-78	2	4	6	8
N#Cc1ccc(Oc2ccc(/C=N/O)cn2)cc1	i	0	-6	nt	-2	6	3	-5
Cc1nc(C(=O)Nc2ccc(F)cc2)nn1-c1ccc([N+](=O)[O-])cc1	i	-11	3	-45	2	3	-10	-11
COc1ccc(OC)c(NC(=O)Cn2c(-c3ccc(Cl)cc3)noc2=O)c1	i	-19	-7	10	-7	-4	0	-8
CC1CCN(c2ccc([N+](=O)[O-])c(SCCO)c2)CC1	i	5	1	16	2	-12	-12	10
O=P(CCN1CCCCC1)(c1ccccc1)c1ccccc1	i	-8	-4	-73	0	3	9	2
C/C(=N\NC(=O)C1CC1)c1ccc(C(C)(C)C)cc1	i	-19	-3	-9	4	1	-12	1
Cc1ccnc(Sc2ccc([N+](=O)[O-])cn2)n1	i	nt	-4	1	0	-1	6	2
CCN(C(=O)CN1C(=O)c2ccc([N+](=O)[O-])cc2C1=O)C1CCCCC1	i	-4	5	-27	-1	2	-9	3
COc1ccc(Cc2nnc(NC(=O)c3ccccc3Cl)s2)cc1OC	i	-7	1	-1	3	-5	14	9
COc1cc(SC)ccc1C(=O)OCC(=O)N1CC(=O)Nc2ccccc21	nt	-5	nt	-13	-3	3	-27	nt

Main list (from the top)
SMILES	Rce1 inhib	UUG fidelity	eIF4H inh	HIV Env fusion	MT1-MMP act inh	MT1-MMP act inh RFP	CSC inhib	PABP FP inh	others
COc1cc2nc(N(CCCN(C)C)C(=O)c3ccc(C(=O)c4ccccc4)cc3)sc2cc1OC	i	-10	nt	nt	3	1	-16	nt
C=CCN1C(=O)/C(=C/c2ccc(OC)cc2)S/C1=N/c1nccs1	i	nt	-1	-4	-1	0	-3	3
Oc1ccccc1OCc1nc2ccccc2s1	i	-11	1	-78	2	4	6	8
N#Cc1ccc(Oc2ccc(/C=N/O)cn2)cc1	i	0	-6	nt	-2	6	3	-5
Cc1nc(C(=O)Nc2ccc(F)cc2)nn1-c1ccc([N+](=O)[O-])cc1	i	-11	3	-45	2	3	-10	-11
COc1ccc(OC)c(NC(=O)Cn2c(-c3ccc(Cl)cc3)noc2=O)c1	i	-19	-7	10	-7	-4	0	-8
CC1CCN(c2ccc([N+](=O)[O-])c(SCCO)c2)CC1	i	5	1	16	2	-12	-12	10
O=P(CCN1CCCCC1)(c1ccccc1)c1ccccc1	i	-8	-4	-73	0	3	9	2
C/C(=N\NC(=O)C1CC1)c1ccc(C(C)(C)C)cc1	i	-19	-3	-9	4	1	-12	1
Cc1ccnc(Sc2ccc([N+](=O)[O-])cn2)n1	i	nt	-4	1	0	-1	6	2
CCN(C(=O)CN1C(=O)c2ccc([N+](=O)[O-])cc2C1=O)C1CCCCC1	i	-4	5	-27	-1	2	-9	3
COc1ccc(Cc2nnc(NC(=O)c3ccccc3Cl)s2)cc1OC	i	-7	1	-1	3	-5	14	9
COc1cc(SC)ccc1C(=O)OCC(=O)N1CC(=O)Nc2ccccc21	nt	-5	nt	-13	-3	3	-27	nt
O=C(Nc1nc(-c2nc3ccccc3s2)cs1)C1COc2ccccc2O1 (stereo not drawn)	i	20	3	-36	0	3	16	-12
O=C(O)CCCC(=O)Nc1ccccc1-n1ccnc1	i	-46	-3	nt	1	2	-6	1
CC1=CC(=C2N=C(c3ccccc3)OC2=O)C=C(C)O1	i	6	?	-24	-13	2	-14	?
S=C(NNc1cccc(Cl)c1)NC1CCCCC1	i	nt	3	-4	-1	-2	7	69*	eIF4H inh retest=29;PABP FP inh retest=51*
CC(C)(C)c1ccc(OCCC(=O)Nc2cccc(S(=O)(=O)NC3=NCCCCC3)c2)cc1	nt	-4	nt	?	-11	-27	nt	nt
O=C1COc2ccc(C(=O)COC(=O)CCSc3ccccc3)cc2N1	i	-20	5	2	0	2	12	-6
Cc1ccc(NC(=O)C2OCCc3ccccc32)cc1 (stereo not drawn)	i	nt	8	38	4	3	-4	3
CN(CC(=O)N1CCOCC1)S(=O)(=O)c1cc(Cl)ccc1Cl	nt	-12	-13	4	-2	7	-4	-1
Cc1ccc(CNC(=O)c2ccccc2CCc2ccccc2)cc1	i	-9	-1	nt	-7	-8	-3	0
COc1ccccc1C(=O)NC(=S)Nc1ccc2[nH]c(=O)[nH]c2c1	i	-12	0	-1	4	3	8	-2
Cc1cc2[nH]c(=O)c(=O)[nH]c2cc1S(=O)(=O)N1CCN(c2ccccc2F)CC1	i	-13	7	22	4	4	-4	-10
CC1CCC(NC(=O)CN2C(=O)NC(C)(C)C2=O)CC1 (stereo not drawn)	i	-10	nt	-5	1	-1	-7	nt
COc1ccc(CNC(=O)CSc2nnnn2-c2ccc(O)cc2)cc1	i	-13	-3	-25	-2	-3	2	6
COc1ccc(S(=O)(=O)N[C@@H](CSCc2ccccc2)C(=O)O)cc1	i	-9	-1	-32	2	8	3	-8
CCOC(=O)N1CCC(NC(=O)CS(=O)(=O)Cc2nc(-c3cccc(Cl)c3)oc2C)CC1	i	-6	-6	12	3	-4	-12	0
Cc1ccc(-n2nc3c(=O)n(CCCC(=O)NCCc4ccccc4)nc(C)c3c2C)cc1	i	-6	nt	19	6	1	3	nt
CCNC(=S)NN=C1CCC(C(C)(C)C)CC1 (stereo not drawn)	i	-6	-10	16	0	0	-12	4
Cc1cc2nc(-c3ccc(SCC(=O)NC(C)C)nc3)[nH]c2cc1C	i	nt	-8	nt	nt	nt	-2	2
CCn1c(SCC(=O)N/N=C/c2ccccc2OCC(=O)O)nnc1-c1ccccc1	i	nt	-2	nt	nt	nt	-3	-7
C#CCN(C[C@@H]1[C@@H](OC(=O)NCc2ccco2)[C@@H](OC(=O)NCc2ccco2)Cn2c(=O)n(CCCCCC)c(=O)n21)S(=O)(=O)c1ccc(C)cc1	nt	-5	nt	24	0	-5	nt	nt
Cc1cc(C)nc(NS(=O)(=O)c2ccc(NC(=O)Cn3c(=O)oc4ccccc43)cc2)n1	i	-2	7	-11	-1	2	-8	7
COCCNC(=O)C(c1ccc(Cl)cc1)N(C(=O)Cn1nnc2ccccc21)c1cccnc1 (stereo not drawn)	i	-11	-1	nt	nt	nt	4	-5
Cc1c(C)c2ccc(O[C@@H]3O[C@H](CO)[C@H](O)[C@H](O)[C@H]3O)c(C)c2oc1=O	i	-11	-2	10	-5	4	1	1
COc1ccc(Cl)cc1NC(=O)CN(C)C(=O)CCc1nc2ccccc2c(=O)[nH]1	nt	8	nt	nt	-1	2	-15	nt
O=C(NC1CC1)C1CCN(C2CCN(C(=O)/C=C/c3cccc(F)c3F)CC2)CC1	i	11	0	-7	-3	4	5	0
O=C(COC(=O)c1ccc(S(=O)(=O)N2CCOCC2)cc1)Nc1ccccc1OC(F)F	nt	-2	nt	1	-5	-2	0	nt
CN1C=CC=C/C1=C1\SC(=S)N(C2CCCCC2)C1=O	i	-24	-5	-8	16	4	-8	-12
Cn1c(SCC(=O)Nc2ccc3c(c2)OCCO3)nnc1-c1ccncc1	i	nt	16	-12	-2	4	14	12
COc1ccccc1C(=O)CC(=O)c1ccccc1	i	-7	-9	-21	-4	8	7	0
O=C(NCc1ccc(F)cc1)c1cnn2ccccc12	i	-15	-2	-8	-6	-4	-3	-6
CC(=O)Nc1ccc(NCN2C(=O)C3C4CCC(C4)C3C2=O)cc1 (stereo not drawn)	i	-34	2	6	1	0	2	-2
COc1ccc(OCC(=O)Nc2ccc(S(=O)(=O)N3CCCCC3)cc2)cc1	i	-7	15	5	4	0	-6	8
O=C(NCC(c1ccco1)N1CCc2ccccc21)c1ccccc1F (stereo not drawn)	i	-6	nt	-8	3	1	8	nt
C[C@@H]1CCC2[C@](C)(CO)[C@@H](O)CC[C@]2(C)[C@@]12CCC(CO)(CCO)O2 (stereo partly drawn)	i	1	-9	8	0	1	0	2
Cc1nc(NC(=O)CN2CCN(c3ccccc3F)CC2)sc1C(=O)N(C)C	i	-12	-11	37	2	2	13	-9
COc1ccc(CNC(=O)Cn2cc3c(n2)CCCCC3)cc1	i	-18	-10	8	0	-7	-11	-16
Cn1c(SCC(=O)NCc2ccc(F)cc2)nc2c([nH]c3ccccc32)c1=O	i	nt	-14	-26	nt	nt	6	-4
COC(=O)/C(=C\C=C\c1ccccc1)NC(=O)c1ccccc1	i	nt	-4	9	-3	-3	4	-10
Cc1cc(Oc2ccc(-c3nnc(-c4ccccc4)o3)cc2[N+](=O)[O-])ccc1Cl	i	nt	-4	2	0	-1	-10	6
Cc1ccnc(NC(=O)c2ccc(N3C(=O)CCC3=O)cc2)c1	nt	-23	0	nt	0	1	nt	-4
Cc1cc(C)c2oc(C(=O)N(Cc3ccccc3)c3ccccn3)cc(=O)c2c1	i	nt	-4	19	-8	-7	3	4
Cc1cc2n(c(=O)c1C#N)CCCN2c1cccc(Cl)c1	i	-18	12	-6	3	-2	3	9
CCOC(=O)c1ccc(-n2ccnc2)c(NC(=O)c2ccc(Cl)cc2)c1	i	-15	0	-14	0	1	12	-16
Cc1ccc2cc(CCNC(=O)c3ccc4c(c3)OCO4)c(=O)[nH]c2c1	i	-18	7	9	-2	-11	-8	-9
COc1ccc(Cc2nnc(Nc3ccc(Cl)cc3)[nH]c2=O)cc1	i	-21	-6	-3	1	2	12	-8
Cc1cc(=O)n(CCc2ccccc2)c(O)c1C#N	i	-14	-9	nt	-4	14	nt	0
O=C(NCCN1CCOCC1)C(=O)NCC1OCCCN1S(=O)(=O)c1cc(F)ccc1F (stereo not drawn)	i	172*	-8	4	-5	0	1	-9
CCCCN(C(=O)c1cc(Cl)nc2ccccc12)c1c(N)n(CCCC)c(=O)[nH]c1=O	i	-11	nt	6	1	3	-5	nt
COc1cc(C(=O)NNC(=O)c2ccc(F)cc2)ccc1OCC(=O)N1CCOCC1	nt	-9	nt	nt	6	4	1	nt

Screening results as filed in PubChem.
